Screens (PubChem)
ugtP null kill: kills S. aureus RN4220 lacking UgtP; S. aureus RN4220 ugtP deletion, OD600 growth, 16 h; some inactives read as strong as hits; growth inhibition, % (concentration not given with the values); 0.54% of 330,000 active;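 active means z-score under -3 and OD600 up to 0.15 on both plates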;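 further: plate controls were untreated wells for no effect and antibiotic for full effect; wells of about 80 µL received 100 nL stock; the first replicate is given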
Bead autofluor: counter-screen for toxin protease inhibitors: compound fluorescence | compound autofluorescence counterscreen, microsphere flow cytometry; active compounds read high | fluorescence intensity (test concentration not listed) | 3.1% of 360,000 active;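 active means at least 3 SD above the mean of all compounds, about 16000 in these data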;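 further: 100 nL of 1 mM stock went into each well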
RN4220 kill: kills Staphylococcus aureus RN4220; inhibition, % (test concentration not listed); S. aureus RN4220 growth, OD600, 16 h; 0.33% of 330,000 active;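 active means z-score of -3 or lower and OD600 up to 0.18 on both plates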;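 further: plate controls were untreated cells for no effect and reference antibiotic for full effect; stock transfer was 100 nL into about 80 µL; one replicate is shown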
BJeLR viability: kills HRASV12-expressing BJeLR cells. 0.17% of 300,000 active. AID 1554. inhibition, % (concentration not given with the values). BJeLR (HRASV12) viability, CellTiter-Glo ATP luminescence, 48 h; reference of the scale not given here;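 active means replicate mean above 50%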;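 further: 50 nL library stock added to about 25 µL; numbers are from one replicate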
PrP UTR inh: inhibition of PrP 5' UTR reporter expression | cell-based PrP 5' UTR mRNA reporter, plate reader | inhibition, % (no concentration beside the values) | 0.35% of 340,000 active | AID 488862;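 active means every replicate at 50% or more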;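 further: 0 = median of the neutral control wells; tested in H4 reporter cells; numbers are from one replicate; inactives centre near -14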
Mtb hypoxia rep: Mtb hypoxia fluorescent reporter inhibition; 0.1% of 300,000 active; AID 1159583; M. tuberculosis hypoxia-regulated fluorescent reporter, fluorescence; fluorescence inhibition, % (test concentration not listed);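 active means 35 to 45% if threefold the growth effect, above 45% if 1.5-fold the growth effect; inactive means the rest, general growth blockers included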;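 further: wells of about 50 µL received 100 nL stock; 0% = vehicle wells and 100% = reference inhibitor wells; whole bacteria with a GFP reporter of the hypoxia response; strong numbers were not always called active; many hits fall short of the cut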
Mtb hypoxia rep growth: second read-out of Mtb hypoxia rep, no call of its own (marks repeat the call); growth inhibition, %; measured here: M. tuberculosis growth (absorbance);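 0% = vehicle and 100% = reference antibiotic; read after six days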
* = called active by the depositor; . = no result given. Hits appear at their usual frequency. About 4% of those tested had a hit in this group.

SMILES	ugtP null kill	Bead autofluor	RN4220 kill	BJeLR viability	PrP UTR inh	Mtb hypoxia rep	Mtb hypoxia rep growth
COCCCn1c(=O)c2sccc2n2c(CCCC(=O)NCc3ccc(OC)cc3)nnc12	4	5125	4.8	12	-12	11	1
COCCCNc1oc(/C=C/c2ccccc2)nc1C#N	8	4110	-0.4	-6	-71	16	7
O=C1NCCN1Cc1ccc(F)cc1	2	10633	2.2	8	-11	6	7
CC1(C)SC[C@H](C(=O)Nc2cccc(Cl)c2)N1C=O	-3	4435	2.7	2	-26	1	4
CCOc1ccc(NS(=O)(=O)c2ccc3[nH]c(=O)[nH]c3c2)cc1	-1	2736	0.1	-3	-15	-8	-2
COc1ccc(OC)c2c1sc(=NC(=O)c1ccco1)n2C	-12	5485	33	-8	-8	7	15
CC1CN(C(C)CO)C(=O)Cc2cc(NC(=O)CCC(F)(F)F)ccc2OC1CN(C)S(=O)(=O)c1ccc(Cl)cc1 (centres undefined)	5	.	4.9	.	.	17	11
CCc1nnc(SCC(=O)Nc2ccc(NC(C)=O)cc2)n1-n1cccc1	-2	5677	-0.1	10	-15	-8	2
O=[N+]([O-])c1ccc(Cc2ccccn2)cc1	2	3512	3.0	.	-7	-1	9
Oc1ccc(N2Cc3ccccc3C2)cc1	3	3257	1.2	8	-4	-5	5
O=C(NN1C(=O)NC2(CCCCC2)C1=O)c1cccs1	-3	4485	-3.0	.	-5	-3	-9
Cc1ccc(S(=O)(=O)NC(CC(=O)N2CCc3ccccc32)c2ccco2)cc1 (centres undefined)	-3	3753	-1.8	0	-16	.	.
Fc1ccc(-c2cn3cc(C(F)(F)F)cc(Cl)c3n2)cc1	-12	4213	0.3	7	-83	6	5
Cc1ccc(N2CCN(S(=O)(=O)c3cccs3)CC2C)cc1 (centres undefined)	30	6272	3.5	4	-20	8	-1
CCOCCOC(=O)C1=C(C)NC(=O)NC1c1ccc2c(c1)OCO2 (centres undefined)	4	.	-0.1	-5	-13	-2	-3
C=CCOC(=O)C1=C(C)Nc2[nH]c(=O)[nH]c(=O)c2C1c1cccc(OC)c1 (centres undefined)	-1	.	-0.2	-4	.	-7	15
CCOc1c2ccc(C(=O)NCCCCc3ccccc3)cc2nn1C	12	3089	-2.9	0	-13	4	3
O=C(CSc1nc(-c2ccco2)cc(C(F)(F)F)n1)Nc1cccnc1	-2	8095	3.4	3	-8	11	6
Cc1ccc(NC(=S)NCc2ccc(F)cc2)c(C)c1	.	3424	.	-4	-13	.	.
CCCn1c(SCC(=O)N(CC)CC)nnc1-c1ccncc1	7	4403	0.4	-16	-22	9	1
OCC1(CCOc2ccccc2)CCN(Cc2cc(Cl)ccc2O)CC1	-5	3684	-0.8	5	8	4	12
Cc1ccccc1N1CCN(C(=O)c2cc(C3CC3)nn2-c2ccccc2)CC1	9	3444	-1.3	.	-14	8	-1
CCSc1nc2ccccc2n1CC(=O)O	1	4262	2.0	-10	0	-7	4
O=C(COC(=O)C1CC1)NCc1ccccc1Cl	-5	3195	0.2	-3	-10	.	.
CN1CCC(=NNC(=O)COc2ccc(Cl)cc2)CC1	8	4196	5.9	-1	-14	12	-1

Structural class, the compounds so far containing an aryl methoxy group
SMILES	ugtP null kill	Bead autofluor	RN4220 kill	BJeLR viability	PrP UTR inh	Mtb hypoxia rep	Mtb hypoxia rep growth
COCCCn1c(=O)c2sccc2n2c(CCCC(=O)NCc3ccc(OC)cc3)nnc12	4	5125	4.8	12	-12	11	1
COc1ccc(OC)c2c1sc(=NC(=O)c1ccco1)n2C	-12	5485	33	-8	-8	7	15
C=CCOC(=O)C1=C(C)Nc2[nH]c(=O)[nH]c(=O)c2C1c1cccc(OC)c1 (centres undefined)	-1	.	-0.2	-4	.	-7	15

Following part
SMILES	ugtP null kill	Bead autofluor	RN4220 kill	BJeLR viability	PrP UTR inh	Mtb hypoxia rep	Mtb hypoxia rep growth
O=S(=O)(c1ccc(Cl)c(Cl)c1)N1CCc2nc3ccccc3n2CC1	6	17740*	3.8	-3	-9	3	-4
CCS(=O)(=O)c1ccc2oc(SCC(=O)NC34CC5CC(CC(C5)C3)C4)nc2c1	-3	16016	1.2	-13	9	9	8
CN(C)S(=O)(=O)N1CCC(Oc2cccc(C(=O)NCCCC3CCCC3)c2)CC1	-8	5941	-4.9	-4	-37	-17	11
CCCC(=O)Nc1ccc(NC(=O)c2ccccn2)cn1	0	3510	0.8	1	-80	-7	11
O=C1C=C(Nc2ccccc2C(=O)O)c2ccccc2C1=O	1	4517	4.1	-5	-10	1	-3
Cc1ccc(NC(=O)Nc2ccc3c(c2)OCO3)nc1	-8	2051	6.5	5	-72	2	-2
C/C(=N\NC(=O)c1ccc(N2CCCC2=O)cc1)c1ccccc1	.	3381	.	0	-41	.	.
COc1ccc(N(CC(=O)NCCc2ccccc2)C(=O)c2csnn2)cc1OC	.	5691	.	-16	-35	.	.
C/C=C(/C)C(=O)Nc1cccc(C2=NOC3(C2)C[C@@H](C(N)=O)N(C(=O)CC(c2ccccc2)c2ccccc2)C3)c1 (some centres undefined)	.	4341	.	9	-23	.	.
Cc1nc2ncccn2c1-c1csc(NCc2ccco2)n1	1	6754	3.9	0	-8	12	10
Cc1cccc(C(C)(C)C)c1OCCOCCN1CCCC1	7	2192	9.7	5	-1	14	-5
O=C(CCNc1ccccc1)c1ccc2c(c1)OCO2	5	7813	2.8	7	-67	6	7
Cc1cccc(N2CCN(C(=S)NC3CCCCC3)CC2)c1C	7	3322	3.9	4	-4	-9	3
CCc1nnc(NC(=O)c2nc3nccc(C)n3n2)s1	0	3138	-1.9	1	1	.	.
COc1ccc(CCNC(=O)c2ccc3ccccc3n2)cc1OC	8	2806	9.9	-1	-40	10	10
Cn1c(O)c(C=Nc2ccc(N3CCOCC3)cc2)c(=O)n(C)c1=S	-7	2833	3.6	-1	-19	3	0
CC(CNS(=O)(=O)c1ccccc1)Sc1ncccn1 (centres undefined)	8	4418	4.8	0	-5	19	0
CC(C)c1ccc(NC(=S)Nc2ccc3[nH]c(=O)[nH]c3c2)cc1	3	4249	1.7	-3	-12	11	1
O=C(N/N=C/c1cc([N+](=O)[O-])ccc1O)c1cccc(NC(=O)c2cccc(Cl)c2)c1	.	4160	.	6	9	.	.
CCOC(=O)c1cccc(NC(=O)c2ccc(NC(=O)c3ccco3)cc2)c1	10	4877	2.3	-4	-38	1	-5
Cc1ccc(-n2nc(C(=O)O)cc2-c2ccccc2)cc1	-6	22097*	4.9	-5	-18	-2	3
Cc1ccc2cc(CN(CCN3CCCC3)C(=O)Nc3ccccc3)c(=O)[nH]c2c1C	-4	6219	1.9	-2	-14	-1	9
O=C(c1ccc(Cl)nc1)N1CCC(Cc2ccccc2)CC1	9	4508	1.6	-3	-17	20	17
CC1CCCCC1NC(=O)COC(=O)/C=C/c1ccco1 (centres undefined)	7	3701	2.9	.	-23	-6	0
CCOC(=O)c1ccc(CNC(=O)CCC(=O)O)cc1	2	4090	1.5	-2	67*	-5	0

Of the compounds above, these have two or more sulfur atoms:
SMILES	ugtP null kill	Bead autofluor	RN4220 kill	BJeLR viability	PrP UTR inh	Mtb hypoxia rep	Mtb hypoxia rep growth
Cc1ccc(N2CCN(S(=O)(=O)c3cccs3)CC2C)cc1 (centres undefined)	30	6272	3.5	4	-20	8	-1
CCS(=O)(=O)c1ccc2oc(SCC(=O)NC34CC5CC(CC(C5)C3)C4)nc2c1	-3	16016	1.2	-13	9	9	8
CC(CNS(=O)(=O)c1ccccc1)Sc1ncccn1 (centres undefined)	8	4418	4.8	0	-5	19	0

More records follow.
SMILES	ugtP null kill	Bead autofluor	RN4220 kill	BJeLR viability	PrP UTR inh	Mtb hypoxia rep	Mtb hypoxia rep growth
CCOP(=O)(OCC)C(Nc1ccccc1)c1ccc2c(c1)OCO2 (centres undefined)	-3	4627	4.3	-1	-10	8	5
O=C(CN(Cc1ccccc1Cl)S(=O)(=O)c1ccc(Cl)cc1)N/N=C/c1ccc(C(=O)O)cc1	.	4781	.	2	-20	.	.
Cc1ccc(-n2ncc3c(SCc4ccccn4)ncnc32)c(C)c1	4	3210	15	22	-25	21	32
C=CCCC(=O)Nc1nc(C)c(-c2csc(Nc3cccc(OC)c3)n2)s1	-9	3757	-4.0	4	-20	3	10
CC(C)(C)C(=O)Nc1ccc(C(=O)COC(=O)C2=COCCO2)cc1	1	5251	0.4	.	-16	-1	-11
COC(=O)C1CCN(C(=O)C2CCC(=O)N(CCCc3ccccc3)C2)CC1 (centres undefined)	12	6682	5.0	7	-14	6	-3
Cc1cc(Cl)c(S(=O)(=O)Nc2ccc3c(c2)OCO3)cc1OCC(=O)NC1CCCCC1	-9	25458*	1.0	-1	-17	9	8
CCCCC(=O)NC(=S)Nc1cc(C(=O)O)ccc1OC	7	2779	7.1	.	-37	-4	2
CCC(CC)c1nnc(NC(=O)/C=C/c2ccco2)s1	-1	10892	1.7	1	-32	-3	12
CC1(C)CC(=O)C=C(NNC(=O)OC(C)(C)C)C1	12	4635	4.2	.	-17	6	-1
COC(=O)COc1ccc2c(c1C)O/C(=C\c1ccco1)C2=O	6	3862	4.6	-7	-18	5	1
O=C(NN=Cc1cccnc1)c1cc(C2CC2)nc2ccccc12	9	.	0.3	.	.	13	1
c1cn(-c2ccc(-c3ccnc4ncnn34)cc2)cn1	-4	4748	2.8	-8	-13	0	3
COc1ccc(CCN(C)C(=O)c2cc(-c3ccc(C)cc3)nc3ccccc23)cc1OC	-1	4021	-1.4	-2	-15	5	5
O=C1Nc2ccccc2C(O)(C(=O)NC2CC2)N1c1ccc(Cl)c(Cl)c1 (centres undefined)	-2	3582	1.5	-12	0	16	5
CCCCc1nnc(NC(=O)CCN2C(=O)C3CC=CCC3C2=O)s1 (centres undefined)	-2	8989	3.5	.	-15	0	8
COc1cccc(NC(=O)CSc2ccc3nnc(-c4cccnc4)n3n2)c1	8	5907	4.0	7	-15	3	-1
COc1ccc(-c2nc3n(c2C)CCC3)cc1	7	5159	3.7	5	-31	19	4
N#CC(C(=O)NC1CCCCC1)c1nc2ccccc2nc1N1CCN(c2ccccc2F)CC1 (centres undefined)	6	4706	4.8	.	-30	.	.
O=C(NNC(=O)C1CC1c1ccccc1)Nc1cccc(Cl)c1 (centres undefined)	1	11167	1.8	-5	-16	1	-1
NC(=O)c1ccsc1NC(=O)c1cccs1	-21	5920	0.1	-14	-78	-2	-6
CCOC(=O)c1cnn(-c2sc(C(=O)OCC)c(C)c2C(=O)OCC)c1N	-10	5906	-0.2	-2	0	-1	-4
Cc1nc2cc(-c3sccc3-n3cccc3)nn2c(C)c1C	37	15708	3.4	-3	-12	8	7
CC(NC(=O)C1(c2cccs2)CCOCC1)c1ccccc1 (centres undefined)	12	8672	3.6	10	-11	18	8
CCOC(=O)N1CCN(C(=O)CNC(=O)c2ccc(Cl)cc2Cl)CC1	-1	3755	-4.2	.	-16	-2	6
(cont.)
SMILES	ugtP null kill	Bead autofluor	RN4220 kill	BJeLR viability	PrP UTR inh	Mtb hypoxia rep	Mtb hypoxia rep growth
O=C(COc1ccccc1)Nc1ccccc1NS(=O)(=O)c1cccs1	2	2559	5.6	3	-10	6	0
CC(C)Sc1nc(SCC(=O)O)c2c3c(sc2n1)COC(C)(C)C3	11	4332	5.0	-11	-29	15	5
CC(C)C(C(=O)NCc1ccccc1)N(CC1CCCO1)C(=O)CNS(=O)(=O)c1ccccc1 (centres undefined)	5	5302	-0.9	-10	-5	8	6
O=C(CSc1nnc(-c2ccco2)n1-c1ccccc1)Nc1c(Cl)cc(Cl)cc1C(=O)O	4	3582	4.1	.	-10	16	14
COC(=O)c1sc(N)c(C(=O)OC)c1COC(=O)CNS(=O)(=O)c1ccc(C)cc1	-6	6935	1.5	1	-13	6	1
CCOC(=O)N1CCC(Nc2ncnc3c2cnn3-c2ccccc2)CC1	2	26060*	3.2	9	-27	12	8
COc1cc(OC)cc(C(=O)N[C@H](C(=O)OCC(=O)c2ccc3c(c2)NC(=O)CO3)C(C)C)c1	-11	8766	0.2	5	-13	-7	4
Cc1ccc(/C=C/c2onc(C)c2S(=O)(=O)N2CCC(C(=O)NC(C)(C)C)CC2)cc1	-1	5781	9.6	-11	4	-10	9
COc1ccc(N2CCN(C(=O)c3cc(-c4cc(OC)ccc4OC)nc4ccccc34)CC2)cc1	2	6240	-3.6	0	17	3	21
O=C(COC(=O)COc1ccccc1)NCc1ccco1	2	6062	3.9	0	5	11	3
CC1=C(C(=O)c2ccccc2)C(c2cccc([N+](=O)[O-])c2)NC(=S)N1 (centres undefined)	1	4173	11	-2	-29	6	11
C[C@H](CO)N1C[C@H](C)[C@@H](CN(C)C(=O)Nc2ccc(C(F)(F)F)cc2)Oc2ccc(NC(=O)Nc3ccc4c(c3)OCO4)cc2C1=O	6	3931	-4.7	.	-12	2	3
